# Vaccinia mCherry: inhibitors of vaccinia virus infection (mCherry reporter signal); Vaccinia virus mCherry reporter infection, fluorescence; about a quarter of the inactives have no number; Potency, µM (titrated, usually from 36.5 µM), for the others: at the highest dose activity change, negative = inhibition, hits mostly inhibitors; 310,000 tested, 0.63% active; AID 720579; active = well fitted inhibition curve with a large enough effect; inconclusive = small, poorly fitted or top-dose-only effect; inactive = no such curve, though single readings can be large or run the other way; tested in A549 cells; note: nearly all actives have a fitted effect of over 35% in size; inactives centre near -10
# VACV Venus inh: inhibitors of vaccinia virus (Venus reporter). Vaccinia virus Venus reporter expression, fluorescence. Potency, µM (doses to about 36.5 µM), for inactives: top-dose activity change, negative = inhibition, most hits filed as inhibitors. 330,000 tested, 0.46% active. AID 720580; active means well fitted inhibition curve with a large enough effect; inconclusive means small, poorly fitted or top-dose-only effect; inactive means no such curve, though single readings can be large or run the other way; tested in A549 cells; note: nearly all actives have a fitted effect of over 30% in size; inactives centre near -10
# Numbers without * were called inactive; i = inactive; ? = inconclusive; . = not tested or not shown; [ ] = remark or other dose. % is set by controls: 0 for no effect and ±100 for the full control effect; potency is the fitted concentration of half-maximal effect.
SMILES,Vaccinia mCherry,VACV Venus inh
COC(=O)CNC(=O)c1cc(-c2ccncc2)nc2ccccc12,-2%,-12%
CCc1ccc(OCC(=O)N/N=C(\C)c2ccccc2OC(F)F)cc1,-28%,-15%
COc1ccc2[nH]c3nc(SC(C)C)nnc3c2c1,-14%,-9%
CCOC(=O)c1cc(S(=O)(=O)Nc2ccccc2OCC)[nH]n1,-3%,-13%
FC(F)c1nc2nc(Cl)c(Cl)nc2[nH]1,-7%,-5%
O=[N+]([O-])c1cccc(NP(=O)(N2CC2)N2CC2)c1,-26%,-3%
CCN(CC(=O)Nc1ccccc1C(F)(F)F)C(=O)CCc1nc2sc3c(c2c(=O)[nH]1)CCCC3,i,-1%
CC1CCN(CCCNC(=O)C2CCCN(c3ncnc4c3nc3n4CCCCC3)C2)CC1 (centres undefined),-6%,-11%
O=C(Nc1oc2ccccc2c(=O)c1-c1ccc(Cl)cc1)c1ccco1,i[7.34 µM],-3%[7.34 µM]
CCCCNC(=O)CSc1nc2ccc(NC(=O)CSc3nnc(COc4ccccc4C)n3C)cc2s1,-17%,-3%
COc1ccc(NC(=O)c2nc(C)n(-c3ccc([N+](=O)[O-])cc3)n2)cc1,-11%,-22%
CCOC(=O)N1CCN(c2ncc3c(n2)CC(c2ccccc2O)CC3=O)CC1 (centres undefined),?,?
O=C(CSc1nc2cc(Cl)ccc2o1)NCCc1ccccc1,-13%,-12%
CN1C(CC(O)c2ccccc2)CCCC1CC(O)c1ccccc1 (centres undefined),-2%,-23%
COc1cc2[nH]c(=O)n(CCC(=O)NCc3cccnc3)c(=O)c2cc1OC,-20%,-14%
CC(C)OCCCNC(=O)C1CC(=O)N(C2CCCCCCC2)C1 (centres undefined),-10%[1.46 µM],-14%
COc1cccc(CN2C(=O)NC3(CCCCCC3)C2=O)c1,7%,-4%
Cc1cccc(OCCSc2nc3ccc(NC(=O)c4cccs4)cc3s2)c1,-17%,-1%
Cc1ccc(-n2ncc(C(=O)NC3CC3)c2C2CCN(C(=O)OC(C)(C)C)CC2)cc1,i[7.34 µM],-7%[7.34 µM]
O=S(=O)(c1ccc(NC(=S)Nc2ccc3c(c2)OCO3)cc1)N1CCOCC1,i,-5%
O=[N+]([O-])c1ccc(-c2csc(N/N=C/c3cccnc3)n2)cc1,?,-8%
O=C(Cc1cccc2ccccc12)N1CCN(c2ncccn2)CC1,i,9%
Cc1ccccc1-c1nc2c(s1)CCc1onc(-c3cccc([N+](=O)[O-])c3)c1-2,-12%,-5%
CC1CCCCN1S(=O)(=O)c1cn(C)c(=O)n(C)c1=O (centres undefined),-3%,20%
CC(=O)c1ccc(OCC(O)CN2CCN(Cc3ccccc3)CC2)cc1 (centres undefined),i,0%
C/C(=N/NC(=O)CNC(=O)c1cccnc1)c1ccco1,i[7.34 µM],-5%[7.34 µM]
Cc1ccc(-c2noc(COC(=O)c3ccco3)n2)cc1,-11%,-4%
O=C(NC(C(=O)c1ccccc1)N1CCOCC1)c1cccs1 (centres undefined),-9%,-6%
CCOC(=O)/C=C1\SCC(=O)N1CC(=O)NCCc1ccc(F)cc1,-8%,-6%
COc1ccc(C(=O)O)cc1S(=O)(=O)NCCCN1CCCC1=O,.,-5%
CCc1nc(CNC(=O)c2cc(OC)c(OC)c(OC)c2)no1,-9%,-8%
C[C@@H]1CN([C@@H](C)CO)C(=O)CCCn2nncc2CO[C@H]1CN(C)S(=O)(=O)c1ccccc1F,i,-4%
Cc1csc2nc(-c3cccc(NC(=O)c4ccccc4F)c3)cn12,-14%,-5%
CCC(C)NC(=O)Cn1c(=O)ccc2cc(S(=O)(=O)N3CCCC3)ccc21 (centres undefined),0%,1%
O=C1C(Cl)=C(N2CCN(Cc3ccccc3)CC2)C(=O)N1Cc1ccccc1,-21%,-11%
N#Cc1cc2c(nc1SCc1cccc(Cl)c1)CCCCC2,2%,-2%
CCOC(=O)c1cccc(NC(=O)c2cc(C)nc3c2c(C)nn3-c2ccc(C)cc2)c1,-11%,-18%
CCCOC(=O)c1ccc2c(c1)C(=O)N(c1ccccc1)C2=O,-4%,-3%
CCc1ccccc1NC(=O)CC1SCCNC1=O (centres undefined),i,0%
Cc1ccc(N2C(=O)NC(=O)C(CCc3ccccn3)(Cc3cccc(Cl)c3Cl)C2=O)cc1 (centres undefined),-2%,-18%
CCCn1nc2cc(C(=O)NCc3ccc(C)cc3)ccc2c1OCC,i,-18%
CC(C)C[C@H]1CNC(=O)C(=O)N1CC1CCN(CCC(C)c2ccccc2)CC1 (some centres undefined),-24%,-19%
COc1cc2c(NC3CCN(C)CC3)nc(N3CCCN(C)CC3)nc2cc1OCCCN1CCCCC1,4µM*,3.5µM*
CCOC(=O)c1ccc(N2C(=O)c3n[nH]c(-c4ccco4)c3C2c2ccc(O)c(OCC)c2)cc1 (centres undefined),-23%,-17%
Cc1nnc(NC(=O)c2cccc(S(=O)(=O)N3CCc4ccccc43)c2)s1,.,-11%
CCCCC[C@@H](C)N1C[C@H](COCc2ccccc2)Oc2cc(N3CCC[C@@H]3CO)ccc2S1(=O)=O,i,1%
CCn1c(SCc2ccc(C(=O)Nc3cc(C)cc(C)c3)cc2)nnc1-c1ccncc1,.,?
COc1ccccc1-c1oc2ccccc2c1C#CCO,i,3%
O=C(CSc1nccn1Cc1ccc(F)cc1)NCc1ccc(F)cc1,10%,-7%
CC1CCc2nc3ncn(CC(=O)Nc4cccc(C#N)c4)c(=O)c3cc2C1 (centres undefined),-12%,-5%
CC[C@H](C)/C=C(C)/C=C/C1=CC2=C(Cl)C(=O)[C@@](C)(OC(C)=O)C(=O)C2=CO1,-26%,?
O=C(CSc1nnc(CNC(=O)c2ccccc2F)o1)Nc1ccc2c(c1)OCCO2,-12%,-1%
Cc1cc(Nc2ccc(F)c(Cl)c2)n2nc(C)nc2n1,?,-29%
Cn1cnc(C(=O)NC2CCN(C(=O)OC(C)(C)C)CC2)c1C(=O)NC1CCN(C(=O)OC(C)(C)C)CC1,i,-13%
CCCc1cc(N2CCCC(C(=O)NCC)C2)n2ncnc2n1 (centres undefined),-9%,1%
CCOc1ccc(NC(=O)Cn2ccn(-c3ccc(F)c(F)c3)c(=O)c2=O)cc1,-12%,-8%
Cc1cc(NC(=O)COC(=O)C2CCN(S(=O)(=O)c3c(Cl)cccc3Cl)CC2)no1,-7%,0%
CC1(C(=O)NS(=O)(=O)c2ccc(C#N)cc2)CCN1C(=O)c1cccc(F)c1 (centres undefined),22%,-3%
CC(C)CC1(C)NC(=O)N(CCN2C(=O)c3ccccc3C2=O)C1=O (centres undefined),-11%,-12%
O=C(NCC1CCCO1)c1ccc2c3n(nc2c1)-c1ccccc1CO3 (centres undefined),i,-20%

# Reprinted at random: 5 compounds from above, in no set order.
SMILES,Vaccinia mCherry,VACV Venus inh
Cc1nnc(NC(=O)c2cccc(S(=O)(=O)N3CCc4ccccc43)c2)s1,.,-11%
CCCc1cc(N2CCCC(C(=O)NCC)C2)n2ncnc2n1 (centres undefined),-9%,1%
CC(C)CC1(C)NC(=O)N(CCN2C(=O)c3ccccc3C2=O)C1=O (centres undefined),-11%,-12%
CC[C@H](C)/C=C(C)/C=C/C1=CC2=C(Cl)C(=O)[C@@](C)(OC(C)=O)C(=O)C2=CO1,-26%,?
CC1CCc2nc3ncn(CC(=O)Nc4cccc(C#N)c4)c(=O)c3cc2C1 (centres undefined),-12%,-5%

# Later entries
SMILES,Vaccinia mCherry,VACV Venus inh
O=C1NC(=O)/C(=C/c2ccc(OS(=O)(=O)c3ccc(F)cc3F)cc2)N1,-9%,1%
Cc1cccn2c(=O)c3cc(C(=O)N4CCOCC4)n(C)c3nc12,i,2%
O=S(=O)(Nc1ncccn1)c1ccc(NS(=O)(=O)c2cc(Cl)ccc2Cl)cc1,-15%,-2%
COP1(=O)C=C[C@H](N(Cc2ccccc2)S(=O)(=O)c2ccccc2[N+](=O)[O-])[C@@H](C)O1 (some centres undefined),-27%,-11%
CCn1cc(C(=O)N2CC(C)CC(C)C2)c(=O)c2cc(S(=O)(=O)N(C)C)ccc21 (centres undefined),-5%,-7%
CCOC(=O)c1sc(NC(=O)CSc2nc(C)cc(C(F)(F)F)n2)c(C#N)c1C,-7%,3%
Cn1c(N)c(C(=O)CSc2nnc(C3CC3)n2-c2ccccc2)c(=O)[nH]c1=O,-11%,-5%
Cc1ccc(NC(=O)CSc2cn(CC(=O)N3CCOCC3)c3ccccc23)cc1Cl,-14%,-13%
COc1ccc(OCc2cc(C(=O)NCC(C)(C)N3CCOCC3)no2)c(Cl)c1,-8%,-10%
CCOC(=O)C1OC2(CCCC2)OC1C(=O)OCC (centres undefined),-5%,-5%
Cc1ccc2cc(C(c3nnnn3CC3CCCO3)N3CCCC4(CCCCC4)C3)c(=O)[nH]c2c1 (centres undefined),-12%,-10%
CC1(C)Cc2c(sc3ncn(N)c(=N)c23)CO1,i,-7%
COCCN(C(=O)c1ccccc1F)c1c(N)n(Cc2ccccc2)c(=O)[nH]c1=O,i,-10%
Nc1cc(C(F)(F)F)ccc1NCCc1ccccn1,-26%,-1%
Cc1cc(C)cc(NC(=O)C(=O)NCC(c2ccc3c(c2)OCO3)N2CCOCC2)c1 (centres undefined),-8%,-8%
CCOc1ccccc1NC(=O)c1cccc(NC(=O)C(C)C)c1,-1%,-8%
Cc1nccn1-c1c([N+](=O)[O-])c(=O)n(C)c2ccccc12,i,-12%
CC(=O)Nc1ccc(S(=O)(=O)Nc2ccc3c(c2)CCC3)cc1,-21%,-9%
Cc1cc(NC(=O)C2CCN(S(=O)(=O)c3cccc4nsnc34)CC2)ccc1Br,i,-12%
COc1ccc(C(=O)NC(=S)N2CCCCC2c2cccnc2)cc1OC (centres undefined),-10%,-7%

# Reformatted: entries from further up
> Cc1ccc(N2C(=O)NC(=O)C(CCc3ccccn3)(Cc3cccc(Cl)c3Cl)C2=O)cc1 (centres undefined)
  Vaccinia mCherry = -2%
  VACV Venus inh = -18%
> CCCn1nc2cc(C(=O)NCc3ccc(C)cc3)ccc2c1OCC
  Vaccinia mCherry = i
  VACV Venus inh = -18%
> CC(C)C[C@H]1CNC(=O)C(=O)N1CC1CCN(CCC(C)c2ccccc2)CC1 (some centres undefined)
  Vaccinia mCherry = -24%
  VACV Venus inh = -19%
> COc1cc2c(NC3CCN(C)CC3)nc(N3CCCN(C)CC3)nc2cc1OCCCN1CCCCC1
  Vaccinia mCherry = 4µM*
  VACV Venus inh = 3.5µM*

# Carrying on:
SMILES,Vaccinia mCherry,VACV Venus inh
Cc1c(Cl)cccc1NC(=O)C1CCCN(c2ncnc3onc(C)c23)C1 (centres undefined),-23%,-23%
CCCCC(=O)OCC(=O)C1(O)Cc2c(O)c3c(c(O)c2C(OC2CC(NC(=O)C(F)(F)F)C(O)C(C)O2)C1)C(=O)c1c(OC)cccc1C3=O (centres undefined),374%[activator],.
Cc1cccc(-n2c(SCC(=O)N3CCCC3)nnc2-c2ccccn2)c1C,-10%,-10%
CCCCNC(C)Cc1ccccc1 (centres undefined),-1%,-9%
Nc1nc(-c2ccc3c(c2)CCO3)cs1,-27%,-14%
CCC1Oc2ccc(C)cc2N(CC(=O)NCCc2ccccc2)C1=O (centres undefined),1%,-8%
COc1ccccc1-n1cc(-c2ccc([N+](=O)[O-])cc2)[nH]c1=S,-7%,-21%
CCOc1ccc(-c2nonc2NC(=O)c2oc3ccc(Br)cc3c2C)cc1,-17%,-17%
COCCn1c(SCC(=O)N2CC(=O)Nc3ccccc32)nc2ccccc21,-13%,-6%
COc1cc(CN2CCC3(CC2)CC3C(=O)Nc2ccc3sc(C)nc3c2)ccc1F (centres undefined),-1%,-1%
Nc1ccc2c(c1)OC1(CCCCC1)O2,-12%,-2%
CCCOc1ccc(C(CC(=O)O)NC(=O)c2sc3ccccc3c2Cl)cc1 (centres undefined),-1%,4%
CC(C)CC1(C)NC(=O)N(CC(=O)Nc2ccc3c(c2)CCC3)C1=O (centres undefined),-16%,-22%
FC(F)(F)c1ccc(Sc2n[nH]c(C(F)(F)F)n2)nc1,-2%[7.34 µM],-1%[7.34 µM]
CC(NC(=O)OC(C)(C)C)C(=O)Oc1ccc2ccc(=O)oc2c1 (centres undefined),.,-14%
O=C1c2[nH]nc(-c3ccccc3O)c2C(c2ccc(Cl)cc2)N1CCc1ccccc1 (centres undefined),-6%[7.34 µM],-5%[7.34 µM]
CC(=O)Nc1c(Cl)c2c(c(Cl)c1Br)-c1ccc(Cl)cc1C2,i,3%
Cc1cccc(NC(=O)C2(C)Cc3ccccc3C(=O)O2)c1 (centres undefined),2%,3%
COc1ccc(-c2noc(Cc3ccc(Cl)cc3)n2)cc1OC,?,-23%
CCCn1c(=O)c2sccc2n2c(CCCC(=O)Nc3ccc(C)c(F)c3)nnc12,-5%,2%
CCOC(=O)c1sc(Nc2ccc(C)cc2C)nc1C,-9%,-20%
O=C(Nc1ccc2oc(-c3ccc4ccccc4c3)nc2c1)c1ccccc1F,-3%,0%
CCC(=O)Nc1ccccc1-c1nc2ccccc2n(CC(=O)c2ccc(Cl)cc2)c1=O,-6%,-4%
CC(=O)/C(C#N)=C1\NC(=O)C(Cc2ccc(C)c(Cl)c2)S1 (centres undefined),-2%[7.34 µM],56%[activator][7.34 µM]
CCOc1ccc(CN2CCN(Cc3c[nH]c4ccccc34)CC2)cc1,-26%,-13%
COc1ccc2nc(N3CCCCC3)c(/C=C3\SC(=S)NC3=O)cc2c1,i,-8%
Cn1nc(C(=O)NCc2ccccc2)c2ccccc2c1=O,3%,8%
CCOc1ccc(Nc2nc(Cc3nnc(SCC(=O)NCc4ccco4)n3CC)cs2)cc1,-18%,-22%
CCOc1ccc(CNC(=O)c2ccc(NC(=O)N3CCSc4ncccc43)cc2)cc1OC,-6%,-9%
O=C(Nc1c2n(c(=S)n(-c3ccccc3)c1=O)CCCCC2)c1ccccc1,i,0%
